# From PubChem
# YopH inh: YopH tyrosine phosphatase inhibitors, primary screen, biochemical, fluorescence Ex485/Em525; inhibition, %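 (about 10 µM by stock and volumes)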; YopH tyrosine phosphatase [Yersinia enterocolitica]; AID 898, 2007; hit rate 0.16% among 140,000;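 active means inhibition of 50% or more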;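 further: controls were vehicle for no effect and minimum signal wells for full effect; inactives centre near -20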
# Mtb H37Rv: M. tuberculosis H37Rv growth inhibitors, H37Rv strain (AID 1626) | inhibition, % at 10 µM; hits with a dose series show IC50 in µM | hit rate 0.95% among 220,000 | M. tuberculosis H37Rv growth inhibition; higher % means a stronger effect;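 active means confirmed in a dose series; inconclusive means inhibition above 80% but not taken into the dose series; inactive means below 80% or under 30% at every dose of the series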;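 further: bacteria incubated seven days before Alamar blue readout; 0% = bacteria only wells and 100% = bacteria with antibiotic wells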
# RecA splice inh: Mtb RecA intein splicing inhibitors, primary screen, biochemical, fluorescence, HTS; Protein RecA (Mycobacterium tuberculosis (strain ATCC 25618 / H37Rv)), P9WHJ3; cell-free RecA intein splicing; inhibition, %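 (about 9 µM by stock and volumes)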; hit rate 0.75% among 290,000; in the data active means inhibition above about 30%; inconclusive means no clear call, values can overlap the other calls;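 further: 0% = vehicle wells and 100% = reference inhibitor control wells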
# Target sequence (P9WHJ3 whole entry, looked up, canonical isoform): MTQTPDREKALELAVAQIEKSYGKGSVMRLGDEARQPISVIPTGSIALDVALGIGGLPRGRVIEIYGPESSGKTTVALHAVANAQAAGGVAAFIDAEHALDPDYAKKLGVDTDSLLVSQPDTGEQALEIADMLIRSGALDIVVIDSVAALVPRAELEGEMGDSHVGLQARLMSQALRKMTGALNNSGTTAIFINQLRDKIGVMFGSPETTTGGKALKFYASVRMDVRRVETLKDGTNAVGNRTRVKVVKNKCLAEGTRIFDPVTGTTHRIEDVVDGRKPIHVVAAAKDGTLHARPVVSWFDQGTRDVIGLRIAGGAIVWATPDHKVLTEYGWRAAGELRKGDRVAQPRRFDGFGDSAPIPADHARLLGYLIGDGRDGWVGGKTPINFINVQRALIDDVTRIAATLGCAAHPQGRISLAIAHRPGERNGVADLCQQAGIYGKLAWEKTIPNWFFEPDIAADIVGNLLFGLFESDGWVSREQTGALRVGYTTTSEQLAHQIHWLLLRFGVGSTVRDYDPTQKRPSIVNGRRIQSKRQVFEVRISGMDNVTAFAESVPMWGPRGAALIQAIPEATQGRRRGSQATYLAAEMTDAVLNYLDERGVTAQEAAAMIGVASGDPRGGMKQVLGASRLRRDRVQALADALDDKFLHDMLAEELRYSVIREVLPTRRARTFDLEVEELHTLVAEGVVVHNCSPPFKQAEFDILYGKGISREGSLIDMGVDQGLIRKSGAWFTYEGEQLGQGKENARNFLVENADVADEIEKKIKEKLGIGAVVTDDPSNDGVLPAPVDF
# Arbovirus anti: antivirals against arbovirus infection, primary screen, cell-based, full library, 10K replicate subset; hit rate 0.37% among 200,000; arbovirus infection cell-based antiviral screen; inhibition, % at 10 µM;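 active means inhibition from about 30%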;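 further: bluetongue infection of BSR cells; cell survival read as ATP light after 72 h; 0% = infected wells without compound and 100% = uninfected wells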
# Mtb bLac sens: beta-lactam sensitization of Mtb H37Rv, H37Rv. hit rate 0.27% among 330,000. M. tuberculosis H37Rv growth with meropenem, percent inhibition; hits of this screen are not shown here. inhibition, % at 25 µM;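 active means about 74% or more and at least 40 points above the plate without the antibiotic, then above 30% in a dose series; inconclusive means first-round hits that could not be retested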;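 further: growth measured after seven days incubation then overnight dye step; 0% = bacteria only wells and 100% = bacteria with antibiotic; twin plates without the antibiotic show which effects depend on it; some results filed as inactive read as strong as hits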
# Arbovirus anti repeat: second read-out of Arbovirus anti, no call of its own (marks repeat the call); inhibition, %; measured here: 10K subset replicate screen; many hits read low in the repeat;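 first of two repeat runs on a subset; 0% = infected and 100% = uninfected wells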
# Active calls of the source: *; ? = inconclusive; / = no result given.
SMILES,YopH inh,Mtb H37Rv,RecA splice inh,Arbovirus anti,Mtb bLac sens,others
Cc1ccc(S(=O)(=O)N2CCC(C(=O)NCCCn3ccnc3)CC2)cc1,/,/,1.7,/,-1,
CC1Cc2ccccc2N1C(=O)c1cnsn1 (stereo not drawn),7,-9%,-2.6,0,-7,
CCS(=O)(=O)N1CCN(C(=O)c2ccccc2)CC1,-27,-8%,-1.8,7,-4,
CCOC(=O)c1ccc(CSc2nnc(C)n2N)o1,-16,1%,2.3,2,-5,
COc1ccc(-c2cc(=O)c3cc(O)ccc3o2)cc1,/,0%,-3.4,1,1,
COc1ccc(N=C(C)c2sc3ccccc3c2O)cc1,/,3%,0.5,/,3,
C=CCn1c(C)cc(-c2csc(N)n2)c1C,5,3%,5.2,-2,-8,
Cc1nc2c(cnn2-c2ccccc2Cl)c(=O)n1-c1ccc(C(C)C)cc1,-27,-1%,1.1,-3,6,
COc1ccc(S(=O)(=O)N(C)CC(=O)Nc2ccccc2C(F)(F)F)cc1Cl,-15,5%,-0.9,10,6,
O=c1c2ccccc2ncn1CCOCCOc1cccc(Br)c1,-8,-2%,-4.4,-3,2,
O=C(Nc1cccc(-c2cnc3ccccc3n2)c1)c1ccccc1,-3,-13%,-0.6,-20,-3,
Cc1cccc(C(CC(=O)O)n2cccc2)c1 (stereo not drawn),-10,11%,-4.6,5,4,
CCOc1ccc(Nc2cc(C)nc3nc(C)nn23)cc1,-28,/,3.7,-1,4,Arbovirus anti repeat=3
O=C(/C=C/c1ccccc1)NCC(=O)N/N=C\c1cccnc1,6,-3%,-1.1,11,-1,
COc1ccc(NC(=O)c2sccc2OS(=O)(=O)N(C)C)cc1,/,7%,0.8,-6,3,

# Taken from above for reference:
SMILES,YopH inh,Mtb H37Rv,RecA splice inh,Arbovirus anti,Mtb bLac sens,others
Cc1ccc(S(=O)(=O)N2CCC(C(=O)NCCCn3ccnc3)CC2)cc1,/,/,1.7,/,-1,
CC1Cc2ccccc2N1C(=O)c1cnsn1 (stereo not drawn),7,-9%,-2.6,0,-7,

# Continuation:
SMILES,YopH inh,Mtb H37Rv,RecA splice inh,Arbovirus anti,Mtb bLac sens,others
CN(C)CCN(C(=O)CN1C(=O)c2ccccc2C1=O)c1nc2cc3c(cc2s1)OCO3,/,/,-0.9,/,-3,
Fc1ccccc1-c1nc2ccccc2[nH]1,/,-1%,2.2,-11,1,
O=C1c2ccccc2NC(c2ccc(-c3ccc(Br)cc3)o2)N1O (stereo not drawn),-22,77%,2.0,-35,82,
O=c1oc(-c2cccs2)nc2ccc(Br)cc12,-13,-7%,24,46*,13,
COc1ccc(CCNC(=O)C2CCN(S(=O)(=O)c3cc(OC)ccc3OC)CC2)cc1,-12,-2%,/,9,-13,
Cc1cc2nc(-c3cccnc3SCC(=O)NCc3ccco3)[nH]c2cc1C,-37,-6%,-1.0,-14,3,
O=C(c1ccc(N2CCCC2=O)cc1)N1CCN(c2ccc(Cl)cc2)CC1,/,/,2.1,/,-5,
CC1C/C(=C/c2ccccn2)C(=O)/C(=C/c2ccccn2)C1 (stereo not drawn),/,?,1.1,-39,100,
Cc1ccc(OP(=O)(NC(C)c2ccccc2)Oc2ccc(C)cc2)cc1 (stereo not drawn),/,6%,-1.5,-7,-1,
O=C(O)CCn1c(SCCc2ccccc2)nc2ccccc21,/,/,-1.5,/,-5,
CN(C)/C=N/c1cc(=O)n(Cc2ccccc2)c(=O)n1C,-20,-11%,-0.7,6,1,
Cc1ccc(NC(=O)c2c(C(=O)Nc3ccccc3)sc3nc(C)cc(=O)n23)cc1,/,-7%,-0.9,3,-2,
Cn1c(=O)n(C)c2cc(NC(=O)c3ccc(F)cc3)c(Br)cc21,/,/,-0.2,/,-4,
CC(=O)Nc1cccc(NC(=O)CSc2nccn2Cc2ccccc2)c1,/,/,2.0,/,5,
O=C(CN1CCC(n2nnc3cc(C(F)(F)F)ccc32)CC1)NCc1cccs1,-5,/,2.8,-1,81,
CN(C)CCCOc1cccc(Cl)c1,-21,0%,4.9,4,-2,
O=C1NC(=O)/C(=C/c2ccccc2Oc2ccc(Cl)cc2)S1,-35,-7%,2.3,2,-10,
FC(F)(F)c1nnc2c(Sc3ccc(Cl)cc3)nc3ccccc3n12,-11,1%,5.0,0,-3,
Cc1cccc(C(=O)NCC(=O)NC2CCN(Cc3ccccc3)CC2)c1,/,/,2.1,/,-8,
O=C(N/N=C/c1cccc(OCc2ccccc2)c1)c1ccc(Br)cc1,-26,-1%,1.8,-9,-4,
C=CCN=C1NN=C(c2ccc3c(c2)OCCO3)CS1,/,-5%,2.6,-4,-6,
CCN(CC)c1ccc([N+](=O)[O-])c2cccnc12,/,-3%,14,1,2,
Cc1ccc(S(=O)(=O)Nc2cc3c4c(c2)C(C)C(=O)N4CCC3)cc1 (stereo not drawn),/,/,-0.4,/,-4,
CCN(CC)S(=O)(=O)c1cccc(NC(=O)CCNC(=O)c2ccc([N+](=O)[O-])cc2)c1,/,14%,1.0,/,-4,
CC(=O)c1c(C)[nH]c(C(=O)N2c3ccccc3CC2C)c1C (stereo not drawn),-45,2%,-1.9,-3,0,Arbovirus anti repeat=-5
CCOc1ccc(NS(=O)(=O)c2ccc3[nH]cc(C(=O)NCC4CCCO4)c(=O)c3c2)cc1 (stereo not drawn),-48,-6%,-0.1,4,-5,
C=CCn1c(Cc2c[nH]c3ccccc23)nnc1SCC(=O)NCc1ccccc1,-11,-5%,1.8,4,-4,
CCC1(c2ccc(F)cc2)NC(=O)N(CC(=O)NCc2ccc(C)cc2)C1=O (stereo not drawn),/,/,1.1,/,0,
CCNC(=O)Cn1cc(C#N)c2ccccc21,-37,-19%,1.0,8,10,
CCOC(=O)C1=C(C)Nc2nc3ccccc3n2C1c1ccc(O)cc1 (stereo not drawn),/,-1%,-0.3,/,-10,
Cc1cc(C)nc(NS(=O)(=O)c2ccc(NC(=O)Cc3ccccc3F)cc2)n1,/,/,0.3,/,-8,
COC(C[C@@H](O)C[C@@H](O)COCc1ccccc1)OC,/,-11%,-2.5,/,/,
Cc1nc2c(C(=O)NCc3ccccc3)c[nH]n2c(=O)c1Cl,-43,-8%,-1.0,6,14,
COCC(=O)NC(c1ccccc1)c1ccccc1,20,-12%,1.7,10,-7,
C/C(=N\NS(=O)(=O)c1ccc([N+](=O)[O-])cc1)c1cccs1,/,1%,-0.6,-1,-3,
CCN(CC)c1nc(-c2ccccc2)nc2ccccc12,/,/,8.0,/,54,
CCc1nnc(SCC(=O)NC2CCCC2)nc1CC,-24,-4%,0.8,-1,-10,
O=C(OCc1ccccc1)c1ccc2c(c1)-c1ccccc1C2=O,-29,-5%,-2.1,-2,56,
NC(=O)COc1cccc(/C=N/NC(=O)c2ccc(-n3cccc3)cc2)c1,/,-7%,-1.1,/,4,
CCc1noc(C)c1C(=O)Nc1cccc(S(=O)(=O)N2CCCCCC2)c1,/,/,-0.7,/,-16,
CC1CC(C)CN(CCCNC(=O)C2CCN(c3ncnc4c3sc3cccc(F)c34)CC2)C1 (stereo not drawn),/,5%,7.0,/,2,
CCC(C)NC(=O)c1cc(Cl)c(NC(=O)C2=C(C)OCCS2)cc1OC (stereo not drawn),/,/,0.2,/,94,
CC1CN(CC(O)COCc2ccc3c(c2)OCO3)CC(C)O1 (stereo not drawn),/,1%,-1.0,-1,7,
O=C(NCCCN1CCOCC1)c1ccc([N+](=O)[O-])cc1[N+](=O)[O-],/,6.2µM*,-3.2,-1,100,
CCN(CC1CCCN(CCc2cccc(OC)c2)C1)C(=O)c1ccc(COC)o1 (stereo not drawn),/,/,-1.0,/,2,

# Of the compounds above, these have fluorine.
SMILES,YopH inh,Mtb H37Rv,RecA splice inh,Arbovirus anti,Mtb bLac sens,others
COc1ccc(S(=O)(=O)N(C)CC(=O)Nc2ccccc2C(F)(F)F)cc1Cl,-15,5%,-0.9,10,6,
Fc1ccccc1-c1nc2ccccc2[nH]1,/,-1%,2.2,-11,1,
Cn1c(=O)n(C)c2cc(NC(=O)c3ccc(F)cc3)c(Br)cc21,/,/,-0.2,/,-4,
O=C(CN1CCC(n2nnc3cc(C(F)(F)F)ccc32)CC1)NCc1cccs1,-5,/,2.8,-1,81,
FC(F)(F)c1nnc2c(Sc3ccc(Cl)cc3)nc3ccccc3n12,-11,1%,5.0,0,-3,
CCC1(c2ccc(F)cc2)NC(=O)N(CC(=O)NCc2ccc(C)cc2)C1=O (stereo not drawn),/,/,1.1,/,0,
Cc1cc(C)nc(NS(=O)(=O)c2ccc(NC(=O)Cc3ccccc3F)cc2)n1,/,/,0.3,/,-8,
CC1CC(C)CN(CCCNC(=O)C2CCN(c3ncnc4c3sc3cccc(F)c34)CC2)C1 (stereo not drawn),/,5%,7.0,/,2,

# (list continues)
SMILES,YopH inh,Mtb H37Rv,RecA splice inh,Arbovirus anti,Mtb bLac sens,others
Cc1ccccc1CNC(=O)CCC(=O)N1CCOc2ccccc21,/,/,-0.4,/,0,
Cc1c(-c2ccccc2)oc2c(C(=O)OCC(=O)Nc3ccc(F)cc3)cccc2c1=O,-23,3%,1.1,-7,1,
COc1ccc(CN2CC(C(=O)NCCCN3CCCC(C)C3)CC2=O)cc1 (stereo not drawn),/,/,-3.2,/,3,
COc1ccc(C(=O)N/C(=C\c2cn(C)c3ccccc23)C(=O)NCCCN2CCOCC2)cc1,/,/,0.8,/,-1,
CCSc1nc(N)c(C#N)c(-c2ccccc2Cl)c1C#N,-25,-2%,-1.9,-8,-8,
COc1ccc(NC(=O)CCNS(=O)(=O)c2ccc3c(c2)c(=O)n(C)c(=O)n3C)cc1,-19,0%,-3.2,5,-10,
O=C(COC(=O)c1ccc(O)cc1O)NCCN1C(=O)CSC1=O,/,0%,-6.0,/,-2,
OCCC1CN(Cc2ccc(Oc3ncccn3)cc2)CCN1CCc1ccccc1 (stereo not drawn),/,-2%,-0.5,-8,-1,
COc1ccc(C(=O)NC(=S)Nc2ccc(Cc3ccncc3)cc2)cc1,/,59%,10,-7,80,
COc1ccc(C2(O)CCN(Cc3nnnn3Cc3ccc(C)cc3)CC2)cc1,-26,7%,-0.2,6,89,
O=C(C1=NN[C@@H]2C(=O)N(Cc3ccccc3)C(=O)[C@H]12)c1ccc(F)cc1,/,-15%,0.5,/,30,
COc1ccc(OCC2NCCc3cc(OC)c(OC)cc32)cc1 (stereo not drawn),/,/,0.1,/,-4,
CC(C(=O)N1CCCCC1)N1C(=O)c2ccccc2C1=O (stereo not drawn),-23,-6%,-2.7,5,-7,
COc1ccc(C(=O)NC(=S)N2CCCC2)cc1,/,/,-2.3,/,-3,
Cc1ccc(OCc2nnc(NC(=O)OCC(C)C)s2)cc1,-19,1%,-1.6,7,-16,
CCOC(=O)c1c(C)[nH]c(C)c1C(=O)COC(=O)c1cc2ccccc2cc1OC,-26,5%,5.7,3,1,
CCC(C)[C@H](NC(=O)NCCCn1ccnc1)C(=O)OC (stereo partly drawn),-37,-1%,-2.9,3,-2,
C/C(=N\Nc1nc(-c2cc(C)ccc2C)cs1)c1cc2c(ccc3ccccc32)oc1=O,4,1%,-12,14,1,
COc1ccc(-c2[nH]ncc2CN2CCC(O)(c3ccc(Cl)cc3)CC2)cc1,/,-9%,-0.3,/,-12,
COc1cc(OC)c2c(C)cc(=O)oc2c1C(CCN1CCN(c2ccccc2)CC1)c1ccc2c(c1)OCO2 (stereo not drawn),/,?,6.7,/,88,
N#Cc1nc(-c2cccc(Cl)c2)oc1NCc1cccnc1,13,-3%,1.6,-17,67,
COc1ccccc1CCN=C(N)NS(=O)(=O)c1cc(F)ccc1F,/,/,5.0,/,2,
O=C(Oc1cccc(Nc2ncnc3ccccc23)c1)c1cccnc1,/,2%,2.5,-3,-3,
COc1ccc(CN2CCN(CCc3ccccc3)C(CCO)C2)c(O)c1 (stereo not drawn),/,-2%,-1.4,1,17,
COc1ccc(NC(=O)NNC(=O)CCc2ccc(O)c(O)c2)cc1OC,/,/,-1.6,/,5,
COc1ccc(N2CCN(c3ccc(C(=O)O)cc3[N+](=O)[O-])CC2)cc1,/,/,-1.2,/,4,
Cc1cc(CNC(=O)C2CCC(=O)N(Cc3ccccc3F)C2)nn1C (stereo not drawn),/,/,-0.8,/,-6,
CC(=O)Nc1ccc(Sc2ccccc2C(=O)O)cn1,/,/,-1.8,/,-4,
O=C(NCC1CCCO1)c1ccc([N+](=O)[O-])s1 (stereo not drawn),/,/,-6.9,/,-4,
O=C(COC(=O)CC(c1ccccc1)c1ccccc1)Nc1ccc(F)c(F)c1,/,2%,0.3,2,-2,
CN(C)N1C(N)=C(C#N)C(c2cccs2)C2=C1CCCC2=O (stereo not drawn),/,-5%,-6.8,7,3,
COc1ccc2c(c1)c(C(=O)OCCN(C)C)c(C)n2C,-25,-8%,3.6,-8,-4,
COc1ccc(CN=Cc2c(O)[nH]c3ccccc23)cc1,/,-7%,0.2,20,-3,

# A portion of the library, so the mix of outcomes need not match the whole.
